Source: PubChem BioAssay (PCMD)
Calb biofilm kill: mixtures killing C. albicans biofilm. C. albicans biofilm persisters + clotrimazole, fluorescence viability; primary screen in compound mixtures of four per well. inhibition, % at 7.6 µM. 120,000 compounds, 0.02% hits. AID 1242;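 active means inhibition above 30.3% in the primary screen of four-compound pools, then above 30% when the compound was retested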;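 further: compounds exposed to preformed 24 h biofilms for 48 h; the number belongs to the whole pool; some results filed as inactive read as strong as hits; inactives centre near 12; 0% = biofilm with clotrimazole alone and 100% = kill control; retested singly at about 60 µM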
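Assay system: C. albicans biofilms / Medium: RPMI/MOPS medium, pH 7.0 / Schedule: biofilm formation 24 h, compound exposure 48 h, 37 °C / Measured by: Alamar Blue fluorescence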
Starred values were filed as active, the others as inactive; & = joins results of further samples. This is a subset, so the mix of outcomes need not match the whole.

SMILES	Calb biofilm kill
Cc1ccccc1CC1(CO)CCCN(Cc2cn[nH]c2-c2ccccc2)C1 (centres undefined)	3
CCN1CCN(c2nc(N)c([N+](=O)[O-])c(Nc3ccc(C)cc3)n2)CC1	8
C=CCNC(=O)CSc1nnc(-c2ccccc2Br)n1-c1cccc(C(F)(F)F)c1	2
CN1CCN(C2=Nc3ccccc3Oc3ccc(Cl)cc32)CC1	16
Cc1cc(Nc2ccccc2C(=O)O)n(-c2ccc([N+](=O)[O-])cc2)n1	20
O=C(Nc1ccc([N+](=O)[O-])cn1)C1CC1	12
COc1ccccc1Nc1nnc(SCc2cc(=O)n3ccsc3n2)s1	-2
C/C(=N\OC(=O)Nc1ccccc1)c1cnn(-c2cc(C(F)(F)F)cc(C)n2)c1C	11
CCOC(=O)c1c(C2CC2)csc1NC(=O)COC(=O)c1cc(OC)c(OC)cc1[N+](=O)[O-]	7
C#Cc1ccc([C@H]2C=C(C(=O)NC3CC3)O[C@@H](OCC)[C@@H]2CCCO)cc1	24
O=S(=O)(N/N=C\c1ccc(-c2ccccc2Cl)o1)c1ccccc1	5
CCOc1cc(/C=N/NC(=O)c2ccc(=O)n(C)c2)ccc1O	7
O=C(COC(=O)CCc1nc2ccccc2s1)Nc1ccc(S(=O)(=O)N2CCOCC2)cc1	12
CC1(C)Cc2c(sc3c2c(N)nc(=S)n3Cc2ccccc2)CO1	12
COCCCNc1nc2ccccc2nc1NS(=O)(=O)c1ccccc1	-6
C=CCNC(=O)CC12CC3CC(C1)CC(CC(=O)NCC=C)(C3)C2	11
COCCOc1cc(NC(=O)c2ccccc2)c(Cl)cc1Cl	13
CCOC(=O)N/N=C\c1cccc(OC)c1	16
Cc1nn(-c2ccccc2)c(Cl)c1/C=N/NC(=O)CCNc1n[nH]c(=O)[nH]c1=O	29
COC(=O)c1ccc(OC(=O)CCN2C(=O)C3C4c5ccccc5C(c5ccccc54)C3C2=O)cc1 (centres undefined)	13

Grouped by structure: the entries above with a CF3 group
SMILES	Calb biofilm kill
C=CCNC(=O)CSc1nnc(-c2ccccc2Br)n1-c1cccc(C(F)(F)F)c1	2
C/C(=N\OC(=O)Nc1ccccc1)c1cnn(-c2cc(C(F)(F)F)cc(C)n2)c1C	11

The main list resumes, starting four compounds before the break.
SMILES	Calb biofilm kill
COCCOc1cc(NC(=O)c2ccccc2)c(Cl)cc1Cl	13
CCOC(=O)N/N=C\c1cccc(OC)c1	16
Cc1nn(-c2ccccc2)c(Cl)c1/C=N/NC(=O)CCNc1n[nH]c(=O)[nH]c1=O	29
COC(=O)c1ccc(OC(=O)CCN2C(=O)C3C4c5ccccc5C(c5ccccc54)C3C2=O)cc1 (centres undefined)	13
COc1cc(/C=C/C(=O)OCC(=O)Nc2ccccc2Sc2ccc(Cl)cc2)ccc1O	14
NC(=O)CC(NC(=O)c1ccccc1)c1ccc(NC2CCCC2)c([N+](=O)[O-])c1 (centres undefined)	17
Cc1ccc2[nH]c(=O)c(CC=C(Cl)Cl)c(C)c2c1	11
NC(=O)C1CCN(C(=O)CSc2ncccn2)CC1	42
C#CCOCCOCCOCCNc1nc(N2CCN(C(=O)[C@H]([C@@H](C)CC)n3cc([C@@H](N)CO)nn3)CC2)nc(N2CCN(C(=O)[C@H]([C@@H](C)CC)n3cc([C@@H](N)CC(C)C)nn3)CC2)n1	17
CC(C)c1ccc(Nc2nnns2)cc1	11
Cc1ccsc1S(=O)(=O)N1CCCC(CCC(=O)NCc2ccccc2F)C1 (centres undefined)	8
O=C(Nc1ccc2c(c1)OCO2)c1n[nH]c(=O)c2ccccc12	15
Cc1ccccc1N(CC(=O)N/N=C/c1cc(Br)c(C)o1)S(C)(=O)=O	10
CCOC(=O)c1sc2nc(CSc3ccccc3)nc(N3CCC(C(N)=O)CC3)c2c1C	18
COc1ccc(/C=C/C(=O)O)cc1S(=O)(=O)NCc1ccccc1	24
CCOC(=O)c1c(C)oc2c1C(=O)c1ccccc1C2=O	1
CCn1c(Cc2ccccc2)nnc1SCC(=O)NC1CC1	11
COC(=O)CCC(=O)NC(=S)Nc1ccccc1F	10
COc1cc(OC)c(OC)cc1CN1CCN(c2ccc(F)cc2)CC1	27
Cc1cc(C)c2nc(-c3ccccn3)cc(C(=O)NCc3cc(C)n(C)n3)c2c1	22
O=S(=O)([N-]c1nc2ccccc2nc1-n1cc[n+](Cc2ccccc2)c1)c1ccc(Br)cc1	5
CC(C)NC(=O)C(=O)NNC(=O)C12CC3CC(CC(C3)C1)C2	10
CCOC(=O)C1(CC2CC2)CCN(Cc2ccc(C(=O)OC)cc2)CC1	-15
Cc1ccc2cc(/C=N/NC(=O)c3ccccc3[N+](=O)[O-])c(Cl)nc2c1	10

Given field by field: entries from further up
O=C(Nc1ccc([N+](=O)[O-])cn1)C1CC1
  Calb biofilm kill = 12
COC(=O)c1ccc(OC(=O)CCN2C(=O)C3C4c5ccccc5C(c5ccccc54)C3C2=O)cc1 (centres undefined)
  Calb biofilm kill = 13
O=C(COC(=O)CCc1nc2ccccc2s1)Nc1ccc(S(=O)(=O)N2CCOCC2)cc1
  Calb biofilm kill = 12
O=C(Nc1ccc2c(c1)OCO2)c1n[nH]c(=O)c2ccccc12
  Calb biofilm kill = 15

Next entries follow.
SMILES	Calb biofilm kill
COc1cccc(OCCOCC(O)CN2CCN(Cc3ccc(Cl)cc3)CC2)c1 (centres undefined)	3
Cc1cc(=O)oc(C)c1C(=O)Nc1ccccc1F	22
O=c1[nH]c2ccccc2n2cnnc12	10
O=C(c1ccccc1SCc1ccccc1)N1CCCCCC1	2
COc1ccc(/C=C(\C#N)C(=O)OCC(=O)Nc2c(C)cccc2C(C)C)cc1	18
Cc1cccc(C)c1NC(=O)NCc1ccco1	17
COc1ccc([N+](=O)[O-])cc1N(CC(O)CN(CC(C)C)CC(C)C)S(=O)(=O)c1ccc(C)cc1 (centres undefined)	25
CCOc1ccc(-n2nnnc2-c2nc3ccccc3s2)cc1	19
Cc1nn(-c2nc3ccccc3s2)c(N)c1-c1ccc(Cl)cc1	7
COc1ccc(C=C2C(=O)c3ccccc3C2=O)cc1O	9
O=C(O)c1ccc(S(=O)(=O)c2ccc3c(c2)C(=O)N(NC(=O)c2ccccc2)C3=O)cc1	3
CCOCCCn1c(=S)[nH]c2cc(C(=O)NCCCN(CC)CC)ccc2c1=O	10
COc1cc(/C=N/NC(=O)Cc2cccs2)c([N+](=O)[O-])cc1OC	9
CCOC(=O)c1cc(/C(C)=N/OC(=O)c2ccc(C(C)(C)C)cc2)on1	8
Cc1ccc2nc(N(CCCN(C)C)C(=O)c3ccco3)sc2c1	11
CC(C)Oc1nc(-c2ccc(Cl)cc2)nc2ccccc12	2
CN1/C(=C\C=N\O)C(C)(C)c2ccccc21	9
O=C(c1[nH]ncc1-c1ccc(Cl)cc1)C1CO1 (centres undefined)	12
Cc1nnc(SCc2cccc(Cl)c2)n(N)c1=O	10
Cc1cccc(S(=O)(=O)NC(Cc2c[nH]c3ccccc23)C(=O)O)c1 (centres undefined)	22
O=[N+]([O-])c1cccn2cc(-c3ccc(Br)cc3)nc12	3
CC(C)[C@@H]1NC(=O)c2cc([N+](=O)[O-])cc(F)c2NCCC[C@@H](C(N)=O)NC(=O)[C@H](CO)NC1=O	15
O=C(O)c1ncc(Cl)c(Cl)c1Cl	26&30
COC(=O)c1cc2c(ccn2-c2ccc(F)cc2)n1Cc1cccc(OC)c1	14
CSc1ccc(C(=O)C2CCCN(Cc3ccc(N4CCNC4=O)cc3)C2)cc1 (centres undefined)	3
CC(C)OC(=O)/C(=C/c1ccc2c(c1)c1ccccc1n2C)NC(=O)c1ccccc1	11
COc1ccccc1CNC(=O)CSc1ccc(C(=O)Nc2ccccc2OC)cc1[N+](=O)[O-]	9
O=C(CSc1nnc(CNc2ccc(F)cc2)o1)c1ccccc1	22
Brc1cccc(CNCCCN2CCOCC2)c1	15
COc1cccc(/C=N/NC(=O)CCc2n[nH]c(=O)[nH]c2=O)c1O	6
C#CCOCCOCCOCCNc1nc(N2CCN(C(=O)[C@H](Cc3ccc(O)cc3)n3cc(CCO)nn3)CC2)nc(N2CCN(C(=O)[C@H](Cc3ccc(O)cc3)n3cc(CCO)nn3)CC2)n1	4
COc1ccc(/C=N/NC(=O)c2ccc(Br)cc2)cc1CN1CCOCC1	16
O=C(O)CCC(=O)NNC(=O)c1cccc(Cl)c1	8
Cc1ccc(N2C(=N)SCC2=O)cc1Cl	21
COc1ccc(NC(=O)CSc2nnc(CNC(=O)c3ccco3)o2)cc1	17
Cc1ccc(C2=NN(C(=O)CN3C(=O)c4ccccc4S3(=O)=O)C(c3ccco3)C2)cc1 (centres undefined)	7
Cc1ccc(/C=C2\SC(N3CCN(C(c4ccccc4)c4ccccc4)CC3)=NC2=O)o1	5
O=C1CCCc2oc3c(cc(NS(=O)(=O)c4ccc5c6c(cccc46)C(=O)N5)c4ccccc43)c21	18
COc1ccccc1N/N=C/c1ccc2c(c1)OCO2	6
COc1ccc(/C=C/c2nnc(NC(=O)COc3cccc(C)c3)s2)cc1	16
NC(=O)[C@H]1CC2(CC(c3cccc(NC(=O)COc4ccc(Cl)cc4)c3)=NO2)CN1C(=O)Cc1ccc([N+](=O)[O-])cc1 (some centres undefined)	2
CCOc1ccccc1NC(=O)Nc1cccc(S(N)(=O)=O)c1	21
COc1cccc2c1c(NC(=O)c1cc(C)on1)nn2C	17
Nc1c(C(=O)Nc2ccccc2)c2nc3ccccc3nc2n1CCCN1CCOCC1	15
CC1CCCCN1S(=O)(=O)c1ccc(S(=O)(=O)N(CC(=O)Nc2ccccc2)Cc2cccs2)cc1 (centres undefined)	11
CCCCCC(=O)N1CC2(CC)CN(C(=O)CCCCC)CC(CC)(C1)C2=O	15
Cc1c(NC(=O)NC2CCCCC2)cccc1[N+](=O)[O-]	10
COc1ccc(NC(=O)C2=NNC(=O)CC2)cc1S(=O)(=O)N1CCCCC1	17
COc1ccc(/C=N/NC(=O)c2cccnc2)cc1CN1CCN(c2ccc(F)cc2)CC1	10
COc1ccc(/C=C2\Sc3ccc(C(=O)N4CCc5ccccc5C4)cc3N(C)C2=O)cc1	26
Cc1ccc2nc(-c3ccc(NC(=O)CN4C(=O)NC(C)(c5ccc(OC(F)F)cc5)C4=O)cc3)sc2c1 (centres undefined)	13
O=C(O)CCCN=Cc1c(O)c2ccccc2oc1=O	11
CCOC(=O)c1[nH]ncc1CN1CCCC(C(=O)c2ccc(OC)c(OC)c2)C1 (centres undefined)	0
CCN1CCN(C(CNS(=O)(=O)c2cccs2)c2cccnc2)CC1 (centres undefined)	6
Cc1nnc(N/N=C/c2cc(C)n(-c3ccc(F)cc3)c2C)n1N	12
COc1ccc(N=C/C=C2/C=C(c3ccccc3)OC(C)(C)O2)cc1	29
CCOC(=O)Cc1cc(=O)[nH]c(=O)[nH]1	5
CCOC(=O)C1C(c2cc(OC)c(O)c(OC)c2)NC(=S)NC1(O)C(F)(F)F (centres undefined)	19
CNC(=O)C12N=CNN=C1N(C)C(=O)N2C (centres undefined)	18
Cc1nc(NC(=O)c2ccc(-c3cc4ccccc4oc3=O)cc2)ccc1Br	15

(next part)
SMILES	Calb biofilm kill
O=C(O)CCN1C(=O)C2C3CC(C2C1=O)C1C(c2ccccc2)c2sc(=O)[nH]c2SC31 (centres undefined)	14
CC(=O)CCC(=O)N1CCCC(CNC(=O)c2ccc(-c3ccccc3)cc2)C1 (centres undefined)	5
Cc1c(NC(=O)CSc2n[nH]c(=O)n2-c2ccccc2)c(=O)n(-c2ccccc2)n1C	13
NS(=O)(=O)c1cc2c(cc1Cl)NC(CSCc1ccccc1)=NS2(=O)=O	2
CCN(C(=O)c1cc2c(=O)[nH]c3ccc(C)cc3c2s1)c1ccccc1F	16
CC(C)OC(=O)C1C(=O)CC(C)(O)C(C(=O)OC(C)C)C1c1cccc([N+](=O)[O-])c1 (centres undefined)	9
O=C(Nc1nc2ccc(F)cc2s1)c1ccccn1	7
CN(C)S(=O)(=O)c1ccc(N2CCCC2)c(C(=O)Nc2nc(-c3ccc(F)c(F)c3)cs2)c1	3
COc1cc(OC)cc(C(=O)N[C@H](C(=O)Nc2nc(-c3cc(OC)ccc3OC)cs2)C(C)C)c1	13
Cc1c(O)c2ccccc2oc1=O	17
CCC(C)[C@H](NC(=O)NCc1ccc(S(N)(=O)=O)cc1)C(=O)O (some centres undefined)	22
CCSc1nnc(NC(=O)C2CCCCC2C(=O)O)s1 (centres undefined)	16
CC1CCC(C(C)C)C(OC(=O)Cn2nnc3c(cnn3-c3ccccc3)c2=O)C1 (centres undefined)	17
CCN(CC)C(=O)CSc1nnc(CNc2ccc(F)cc2)n1-c1ccccc1	10
O=C(CN1CCCC1)N1CCN(c2ccccc2)CC1	14
COc1ccc(CN2CCN(Cc3ccc(C)cc3)C(CCO)C2)cc1OC (centres undefined)	12
O=C1[C@H]2[C@H](ON3CCCC[C@H]23)C(=O)N1c1ccc(Cl)cc1	6
CCC(=O)NC(=S)Nc1ccccc1C(=O)OC	12
COc1ccc(Oc2cnc3ccccc3n2)cc1	9
NS(=O)(=O)c1ccc(NC(=O)COC(=O)c2cnccn2)cc1	11
COc1ccc(NC(=O)Cc2coc3cc(C)ccc23)cn1	11
S=C(Nc1ccc(N2CCOCC2)cc1)Nc1ccc2snnc2c1	-10
Cc1cccc(NCCC(=O)c2ccc([N+](=O)[O-])cc2)c1C	5

An excerpt of these results, in markdown:
| molecule | Calb biofilm kill |
| --- | --- |
| CN(C)S(=O)(=O)c1ccc(N2CCCC2)c(C(=O)Nc2nc(-c3ccc(F)c(F)c3)cs2)c1 | 3 |
| COc1cc(OC)cc(C(=O)N[C@H](C(=O)Nc2nc(-c3cc(OC)ccc3OC)cs2)C(C)C)c1 | 13 |
